Ecoli rRNA inh: inhibitors of bacterial rRNA selective over humanized ribosomes. E. coli WT GFP vs humanized-ribosome RFP mutants, fluorescence, 24 h; active compounds read low; DMSO median 0, no signal -100. GFP signal change (wild-type ribosome), % (test concentration not listed). 350,000 compounds, 1.6% hits;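 active = significant combined selectivity score with lowered wild-type GFP, culture density cut under 30%, mutant RFP and density less affected; inactive = any of these conditions unmet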; note: one replicate is shown; some compounds called inactive have numbers as strong as hits
FGF22 binding: shifts melting point of recombinant human FGF22; Q9HCT0; recombinant FGF22 thermal shift, SYPRO orange fluorescence; percent of sucrose octasulfate shift, DMSO zero; calls only at 9.99 µM; 340,000 compounds, 1.5% hits; AID 651658;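 active = melting point raised past a set limit in the mean and every replicate; three in four hits are not shown here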
Target sequence (Q9HCT0 whole entry, looked up): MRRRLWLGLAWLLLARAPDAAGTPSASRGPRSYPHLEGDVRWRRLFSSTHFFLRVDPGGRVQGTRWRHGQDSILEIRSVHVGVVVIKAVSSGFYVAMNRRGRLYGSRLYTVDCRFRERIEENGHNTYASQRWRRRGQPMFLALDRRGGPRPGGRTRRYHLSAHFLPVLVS
AF4-AF9 inh: blocks AF4 peptide binding to human AF9; inhibition, % at 10 µM; 350,000 compounds, 0.47% hits; AlphaScreen, biotin-AF4 peptide binding to FLAG-AF9; AID 651704; P42568;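 active = every replicate reaching a set inhibition limit, whatever the replicate mean, cut at about 25% in these data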;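 note: 0% = plate neutral control median and 100% = total signal loss; the record names both 10 and 1 µM as test concentration; the first replicate is given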
Target sequence (P42568 whole entry, looked up): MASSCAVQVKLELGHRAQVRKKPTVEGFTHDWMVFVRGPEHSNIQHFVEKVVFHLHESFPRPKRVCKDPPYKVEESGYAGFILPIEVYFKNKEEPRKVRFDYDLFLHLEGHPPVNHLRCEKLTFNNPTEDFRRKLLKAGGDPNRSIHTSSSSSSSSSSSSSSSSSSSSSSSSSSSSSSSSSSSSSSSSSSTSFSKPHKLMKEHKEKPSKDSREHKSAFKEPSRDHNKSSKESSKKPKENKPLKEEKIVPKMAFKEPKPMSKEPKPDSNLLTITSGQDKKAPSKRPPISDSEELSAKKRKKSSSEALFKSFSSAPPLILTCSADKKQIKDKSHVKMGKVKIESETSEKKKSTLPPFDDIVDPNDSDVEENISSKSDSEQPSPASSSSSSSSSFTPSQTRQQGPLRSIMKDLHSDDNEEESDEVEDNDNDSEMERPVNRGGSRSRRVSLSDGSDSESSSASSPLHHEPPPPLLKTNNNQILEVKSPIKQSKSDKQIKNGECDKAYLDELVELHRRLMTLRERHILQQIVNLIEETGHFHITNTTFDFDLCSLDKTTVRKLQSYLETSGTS
Ecoli rRNA inh OD600: further read-out of Ecoli rRNA inh, marked with its call; OD600 change, %; measured here: OD600 growth;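 optical density of the mix in the first replicate; 0 = DMSO median and -100 = no signal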
Ecoli rRNA inh RFP: second read-out of Ecoli rRNA inh, no call of its own (marks repeat the call); RFP signal change, %; measured here: RFP humanized mutant strains;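 first replicate; 0 = DMSO median and -100 = no signal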
* hit, by the source's call; i = inactive. These rows are one share of the data; count on the stated rates, not on these rows.

AF4-AF9 inh	Ecoli rRNA inh OD600	Ecoli rRNA inh	FGF22 binding	Ecoli rRNA inh RFP	smiles
-4.9	31	10	i	0.4	COC1=CC(=O)OC(C)(c2ccccc2)C1 (configuration not stated)
4.3	0	3	i	-1.5	CC(=O)N(C)C[C@@H]1Oc2cc(C#CC3CCCCC3)ccc2S(=O)(=O)N([C@H](C)CO)C[C@@H]1C
-0.5	6	4	i	-0.5	COc1ccc(NC(=O)N(C)C[C@H]2Oc3c(NC(=O)C4CCOCC4)cccc3C(=O)N([C@@H](C)CO)C[C@H]2C)cc1
-3.9	12	5	i	-1.9	Cn1cc(-c2csc(C(O)c3ccc(F)cc3)n2)cn1 (configuration not stated)
-1.2	-5	-2	i	0.0	CCCNC(=O)NC[C@H]1[C@@H](c2ccc(C3=CCCC3)cc2)[C@@H](CO)N1C(=O)CC
-8.7	13	2	i	-2.1	COc1ccc(CN(C)C[C@H]2Oc3ccc(NC(=O)CCN4CCOCC4)cc3C(=O)N([C@@H](C)CO)C[C@H]2C)cc1
-15	-3	1	i	-0.2	CN(C)C(=O)[C@@H]1[C@@H](CO)[C@@H]2Cn3c(ccc(-c4ccc(F)cc4)c3=O)[C@@H]2N1C(=O)c1ccccn1
-0.1	4	-3	i	-7.1	O=C(NCC1CC1)[C@@H]1[C@@H](CO)[C@@H]2Cn3c(ccc(-c4cccnc4)c3=O)[C@H]1N2Cc1nccs1
0.5	2	-1	i	0.4	C[C@@H]1CN([C@@H](C)CO)C(=O)c2cc(NC(=O)CCC(F)(F)F)ccc2O[C@@H](C)CCCCO[C@H]1CN(C)S(=O)(=O)c1ccccc1
0.2	3	4	i	-0.9	COc1ccc(S(=O)(=O)N(C)C[C@H]2Oc3cc(C#CC4CC4)ccc3S(=O)(=O)N([C@@H](C)CO)C[C@H]2C)cc1
-3.0	6	2	i	2.7	COc1ccc([C@@H]2CC(=O)c3c(O)cc(O[C@@H]4OC(CO[C@@H]5OC(C)[C@H](O)[C@@H](O)[C@H]5O)[C@@H](O)[C@H](O)[C@H]4O)cc3O2)cc1O (some centres not stated)
-1.8	14	7	i	-3.5	O=c1c2ccccc2c2ccccc2c(=O)n1Nc1ccccc1
8.9	-32	-1	i	18	COc1ccc(NC(=O)Nc2ccc3c(c2)CC(=O)N([C@@H](C)CO)C[C@@H](C)[C@H](CN(C)Cc2ccccc2)O3)cc1
-11	11	-1	i	-3.8	Cc1noc(C)c1NC(=O)N(C)C[C@@H]1Oc2c(cccc2N(C)C)C(=O)N([C@H](C)CO)C[C@H]1C
-2.1	-1	-2	i	0.4	C[C@@H]1CN([C@H](C)CO)C(=O)c2cc(NS(C)(=O)=O)ccc2O[C@@H](C)CCCCO[C@H]1CN(C)Cc1ccc(C(=O)O)cc1
-4.8	11	10	i	-1.8	C/C=C/c1cnc2c(c1)C(=O)N([C@@H](C)CO)C[C@H](C)[C@@H](CN(C)C(=O)Nc1ccccc1F)O2
-0.1	-4	-1	i	-0.5	O=C(N[C@@H]1CC[C@H](CCNS(=O)(=O)c2ccc(Cl)cc2)O[C@@H]1CO)c1ccccn1
1.7	-6	-7	i	-1.3	COC(=O)C[C@H]1C[C@@H]2c3cc(NC(=O)c4ccc5c(c4)OCO5)ccc3O[C@@H]2[C@@H](CO)O1
-0.8	7	3	i	-0.1	COCC(=O)N(C)C[C@H]1Oc2ncc(C#CCC3CCCC3)cc2C(=O)N([C@@H](C)CO)C[C@@H]1C
13	-16	-4	i	11	COc1cccc(-c2ccccc2C2=CC(=O)CC(C)(C)C2=O)c1
4.3	-69	-39	i	1.2	COc1ccc(-c2ccc([C@H]3[C@H](CO)N4CCCCN(C(=O)c5ccc(F)cc5)C[C@@H]34)cc2)cc1
10	-50	-37	i	-9.4	COc1ccc(C2CC(C(C)(C)C)=NN2c2ccc(S(N)(=O)=O)cc2)cc1 (configuration not stated)
-0.6	5	-4	i	2.2	C[C@H](CO)N1C[C@H](C)[C@@H](CN(C)C(=O)Nc2ccc(F)cc2)Oc2ccc(NC(=O)Nc3cccc4ccccc34)cc2C1=O
-5.1	16	5	i	-0.5	C[C@@H]1CN([C@@H](C)CO)C(=O)c2cc(NC(=O)CCC(F)(F)F)ccc2O[C@@H]1CN(C)CC1CC1
-3.9	4	2	i	-2.4	CN(C)CC(=O)N1CC2(C1)[C@H](c1ccccc1)[C@H](CO)N2C(=O)C1CCCCC1
2.1	-6	-5	i	0.6	Cc1ccc(OCC(=O)Nc2cc(S(=O)(=O)N3CCOCC3)ccc2N2CCCC2)cc1
-1.3	5	3	i	-0.2	CCCN1C[C@@H](C)[C@@H](OC)CN(C)C(=O)c2cc(NC(=O)C3CC3)ccc2OC[C@H]1C
5.8	9	2	i	1.1	COc1cc(C(=O)NN=Cc2ccc(N(C)C)cc2)cc(OC)c1OC
1.5	5	1	i	-0.9	CC(=O)N1[C@@H]2c3cccc(=O)n3C[C@@H]2[C@@H](CO)[C@@H]1C(=O)NCc1ccc(F)cc1
2.8	15	6	i	0.8	Cc1ccc(F)c(S(=O)(=O)NC(=O)C2(C)CCN2C(=O)c2ccco2)c1 (configuration not stated)
1.8	-12*	-23*	i	-2.0*	O=C(NCCc1ccc(O)cc1)c1[nH]c(C(F)(F)F)nc1-c1ccccc1
7.3	-14	-8	i	0.6	COc1ccccc1-c1cccc(-c2nc(C(=O)NCc3ccncc3)cc3c2[C@H](CCO)N([S@@](=O)C(C)(C)C)C3)c1
1.5	-5	-4	i	1.7	C/C=C/c1ccc([C@H]2[C@@H](CNC(=O)C3CC3)N(C(=O)NCCC)[C@H]2CO)cc1
-1.4	16	6	i	-3.2	C[C@@H]1CN([C@H](C)CO)S(=O)(=O)c2ccc(C#C[C@@H](C)O)cc2O[C@@H]1CN(C)C(=O)CN(C)C
1.9	19	5	i	6.0	CNC[C@H]1Oc2cc(-c3cncnc3)ccc2S(=O)(=O)N([C@H](C)CO)C[C@@H]1C
-2.4	-22*	-27*	i	9.9*	FC(F)(F)c1ccccc1Cc1c(-c2ccccc2)nc2ccc(Br)cn12
2.1	6	0	i	-2.2	C[C@@H]1CN([C@@H](C)CO)C(=O)c2cccc(NC(=O)c3ccc(-c4nccs4)cc3)c2O[C@@H]1CN(C)CC1CC1
-0.4	10	2	i	0.6	COc1ccc(NC(=O)N(C)C[C@@H]2OCCCC[C@@H](C)Oc3ccc(NC(=O)Nc4ccc(C(F)(F)F)cc4)cc3C(=O)N([C@H](C)CO)C[C@@H]2C)cc1
-2.8	2	-4	i	-1.1	C[C@H](CO)N1C[C@H](C)[C@@H](CN(C)S(=O)(=O)c2ccc(F)cc2)Oc2ncc(-c3ccncc3)cc2C1=O
-2.7	0	1	i	0.9	Cc1ccc(S(=O)(=O)Nc2ccc3c(c2)CC(=O)N([C@H](C)CO)C[C@H](C)[C@@H](CN(C)Cc2ccc(C(=O)O)cc2)O3)cc1
-2.5	4	2	i	0.6	COc1cccc(S(=O)(=O)N2C[C@H](O)COC[C@@H]3O[C@@H](CC(=O)N4CCCCC4)CC[C@H]32)c1
-0.6	11	6	i	-0.9	CCCCNC(=O)C(NC(=O)c1ccccc1)C(=O)c1ccccc1 (configuration not stated)
0.7	-3	0	i	-3.5	CC(C)NC(=O)Nc1ccc2c(c1)C(=O)N([C@H](C)CO)C[C@@H](C)[C@H](CN(C)S(=O)(=O)c1cn(C)cn1)OCCCC[C@@H](C)O2
-5.0	-6	-6	i	1.3	CCCNC(=O)[C@@H]1[C@@H](CO)[C@@H]2Cn3c(ccc(-c4ccc(F)cc4)c3=O)[C@@H]2N1CC1CC1
-0.2	-14	-16	i	0.4	Cn1cc2ccc(N)cc2n1

The last 7 records of the section before lead into the next.
AF4-AF9 inh	Ecoli rRNA inh OD600	Ecoli rRNA inh	FGF22 binding	Ecoli rRNA inh RFP	smiles
-2.8	2	-4	i	-1.1	C[C@H](CO)N1C[C@H](C)[C@@H](CN(C)S(=O)(=O)c2ccc(F)cc2)Oc2ncc(-c3ccncc3)cc2C1=O
-2.7	0	1	i	0.9	Cc1ccc(S(=O)(=O)Nc2ccc3c(c2)CC(=O)N([C@H](C)CO)C[C@H](C)[C@@H](CN(C)Cc2ccc(C(=O)O)cc2)O3)cc1
-2.5	4	2	i	0.6	COc1cccc(S(=O)(=O)N2C[C@H](O)COC[C@@H]3O[C@@H](CC(=O)N4CCCCC4)CC[C@H]32)c1
-0.6	11	6	i	-0.9	CCCCNC(=O)C(NC(=O)c1ccccc1)C(=O)c1ccccc1 (configuration not stated)
0.7	-3	0	i	-3.5	CC(C)NC(=O)Nc1ccc2c(c1)C(=O)N([C@H](C)CO)C[C@@H](C)[C@H](CN(C)S(=O)(=O)c1cn(C)cn1)OCCCC[C@@H](C)O2
-5.0	-6	-6	i	1.3	CCCNC(=O)[C@@H]1[C@@H](CO)[C@@H]2Cn3c(ccc(-c4ccc(F)cc4)c3=O)[C@@H]2N1CC1CC1
-0.2	-14	-16	i	0.4	Cn1cc2ccc(N)cc2n1
2.2	17	19	i	5.2	CCN(CC)C(=O)C1=C(C)N(Cc2ccc(F)cc2)C(=O)C(CC(=O)NCc2ccco2)C1 (configuration not stated)
-2.1	6	1	i	-0.7	Cc1noc(C)c1NC(=O)Nc1cccc2c1O[C@@H](CN(C)Cc1ccc(C(=O)O)cc1)[C@@H](C)CN([C@@H](C)CO)C2=O
-3.0	-1	-5	i	0.9	C[C@H]1CN([C@@H](C)CO)C(=O)CCCn2cc(nn2)CO[C@H]1CN(C)C(=O)CCCN(C)C
-0.7	5	1	i	0.3	CO[C@@H]1CN(C)C(=O)c2cc(NC(=O)C3CCC3)ccc2OC[C@@H](C)N(C(=O)CN(C)C)C[C@@H]1C
-1.3	-15	-9	i	-1.1	O=C(Nc1ccc2c(c1)OCCO2)C1c2ccccc2OCC(=O)N1Cc1ccccc1 (configuration not stated)
-0.6	-2	-1	i	-4.2	CN1C(=O)c2cc(NC(=O)Nc3ccccc3)ccc2OC[C@@H]2O[C@@H](CC(=O)O)CC[C@@H]21
7.0	-76	-57	i	-17	COc1ccccc1C=Cc1ccnc2ccccc12
3.0	-8	-2	i	1.0	C[C@H](CO)N1C[C@H](C)[C@H](CN(C)C(=O)C2CCCCC2)OCCCC[C@H](C)Oc2ccc(NS(=O)(=O)c3ccc(F)cc3)cc2C1=O
-0.1	0	-1	i	1.5	C[C@@H]1CCCCO[C@@H](CN(C)C(=O)c2ccccc2)[C@@H](C)CN([C@@H](C)CO)C(=O)c2cc(NS(=O)(=O)c3ccc(F)cc3)ccc2O1
0.0	-4	0	i	-2.0	C[C@@H]1CCCCO[C@H](CN(C)Cc2ccccc2)[C@H](C)CN([C@H](C)CO)C(=O)c2cc(NC(=O)CCC(F)(F)F)ccc2O1
-6.2	8	0	i	0.7	CNC(=S)NN=C(C)CCCC(C)=NNC(=S)NC
-1.5	15	-5	i	-4.8	CN(C)C(=O)c1ccc(-c2ccc([C@@H]3[C@H](C#N)N(C(=O)Cc4ccccn4)[C@H]3CO)cc2)cc1
1.2	1	-3	i	3.9	C[C@H]1CN([C@@H](C)CO)C(=O)Cc2cc(NC(=O)Cn3cnnn3)ccc2O[C@H]1CN(C)S(=O)(=O)c1cccs1
0.9	-1	2	i	-1.0	CNC[C@@H]1Oc2ccc(NS(=O)(=O)c3ccc(Cl)cc3)cc2CC(=O)N([C@H](C)CO)C[C@@H]1C
0.8	11	3	i	-0.6	C[C@H]1CN([C@@H](C)CO)C(=O)Cc2cc(NC(=O)Cn3cnnn3)ccc2O[C@@H]1CN(C)S(=O)(=O)c1ccc(F)cc1
-1.4	-2	3	i	-2.2	CC(C)C(=O)Nc1ccc2c(c1)C(=O)N(C)[C@@H]1CC[C@H](CC(=O)NC3CCCC3)O[C@H]1CO2
-0.3	-15	-7	i	-3.5	C[C@@H]1CN([C@H](C)CO)S(=O)(=O)c2ccc(-c3ccncc3)cc2O[C@H]1CN(C)C(=O)Nc1ccc(C(F)(F)F)cc1
0.1	1	5	i	6.8	Clc1cccc(-c2nc3c4ccccc4ccn3c2Cc2ccsc2)c1
-2.9	-8	-1	i	0.9	COc1ccc(S(=O)(=O)Nc2ccc3c(c2)CC(=O)N([C@@H](C)CO)C[C@@H](C)[C@H](CN(C)S(=O)(=O)c2ccc(Cl)cc2)O3)cc1
0.3	19	2	i	2.3	CN1C(=O)c2cc(NS(C)(=O)=O)ccc2OC[C@H]2O[C@H](CC(=O)NCc3ccccc3)CC[C@H]21
-1.2	14	7	i	-1.9	CCOC(=O)C1CCCN1C(=O)C1(NC(C)=O)CCCC1 (configuration not stated)
-2.3	0	-2	i	1.9	CO[C@@H]1CN(C)C(=O)c2ccc(NC(C)=O)cc2OC[C@@H](C)N(CCC(F)(F)F)C[C@@H]1C
-2.4	6	3	i	1.2	C[C@H](CO)N1C[C@H](C)[C@H](CN(C)C(=O)c2ccccn2)Oc2ncc(C3=CCCC3)cc2C1=O
0.3	8	23	i	4.8	CC(=O)C12OC(C)(C)OC1CC1C3CCC4=CC(=O)C=CC4(C)C3(F)C(O)CC12C (configuration not stated)
